Shh pathway inh: Sonic Hedgehog pathway inhibition. Shh-LIGHT2 Gli-luciferase reporter, 30 h. inhibition, % (no concentration beside the values). 22,000 tested, 2.1% active. AID 2313;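 active = replicate mean of 65% or more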;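 also: pathway switched on by Shh-conditioned medium diluted 1 in 25 in low serum; 100 nL library stock added to about 40 µL; 0% = median of neutral wells and 100% = positive control level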
PD-1 reverse act: activators reversing PD-1 mediated T-cell inhibition; primary human CD4 T cells, PD-L1 beads, CellTiter-Glo 96 h; activation, % (test concentration not listed); 29,000 tested, under 10 active; AID 2316;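 active = replicate mean of 50% or more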;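 also: 0% = median vehicle wells and 100% = positive control; 100 nL library stock added to about 50 µL; numbers are from one replicate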
MITF inh: inhibitors of MITF; inhibition, % (test concentration not listed); 37,000 tested, 0.28% active; TRPM1 promoter luciferase, luminescence, 24 h;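 active = most replicates at 85% or more, or half of them and the mean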;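 also: human melanocyte line stably carrying TRPM1 promoter luciferase reporter; 0% = vehicle wells and 100% = a positive control; the first replicate is given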
YB-1 expression: YB-1 expression inhibition | delta delta Cp (YB-1 minus CDIP) (no concentration beside the values) | U2OS, qRT-PCR YB-1 vs CDIP delta delta Cp, 16 h; active compounds read high; zero = DMSO, each unit about twofold | AID 434959 | 30,000 tested, 0.37% active;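 active = delta delta Cp rounded down to an integer at or above 3, about 3 SD of DMSO wells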;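 also: higher means less YB-1 transcript or more CDIP transcript relative to DMSO; stock transfer was 100 nL into about 100 µL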
* = called active by the depositor; / = no result given. Not all compounds are listed; count on the stated rates, not on these rows.

SMILES | Shh pathway inh | PD-1 reverse act | MITF inh | YB-1 expression
C[C@H]1CN([C@@H](C)CO)C(=O)Cc2cc(NC(=O)Nc3ccc4c(c3)OCO4)ccc2O[C@@H]1CN(C)C(=O)NC1CCCCC1 | 16 | / | 1 | -0.073
C[C@@H]1CN([C@H](C)CO)C(=O)Cc2cc(NS(=O)(=O)c3ccccc3)ccc2O[C@H]1CN(C)Cc1ccc(Oc2ccccc2)cc1 | 29 | -2.3 | 4 | -0.032
C[C@H](CO)N1C[C@H](C)[C@H](CN(C)CC2CC2)Oc2ccc(NC(=O)CCN3CCOCC3)cc2C1=O | -18 | 0.4 | -8 | 0.26
C[C@H]1CN([C@@H](C)CO)C(=O)c2cccc(NC(=O)C3CCOCC3)c2O[C@H]1CN(C)Cc1ccc(Oc2ccccc2)cc1 | 6 | / | 5 | -0.03
CCc1c(O)nc(SCC(=O)Nc2ccc(C(C)=O)cc2)[nH]c1=O | / | 1.8 | -48 | /
COc1ccc(S(=O)(=O)N(C)C[C@@H]2Oc3c(NC(=O)Nc4ccc(C(F)(F)F)cc4)cccc3C(=O)N([C@H](C)CO)C[C@@H]2C)cc1 | -33 | -2.1 | 9 | 0.024
C[C@@H]1CN([C@H](C)CO)C(=O)c2cccc(NC(=O)c3nc4ccccc4s3)c2O[C@@H]1CN(C)S(=O)(=O)c1cccs1 | -8 | 2.4 | -7 | 0.031
C[C@@H]1CCCCO[C@H](CN(C)C(=O)CCC(F)(F)F)[C@@H](C)CN([C@H](C)CO)C(=O)c2cc(NC(=O)c3ccccc3)ccc2O1 | 4 | -1.4 | -3 | 0.069
C[C@@H]1CN([C@H](C)CO)C(=O)c2cc(NC(=O)Cn3cnnn3)ccc2O[C@@H]1CN(C)C(=O)Nc1ccccc1 | 37 | -0.1 | -21 | 0.47
C[C@H]1CN([C@@H](C)CO)C(=O)c2cc(NC(=O)c3ccncc3)ccc2O[C@@H]1CN(C)Cc1ccc(C(=O)Nc2ccccc2N)cc1 | / | -0.3 | -8 | -0.29
C[C@@H]1CN([C@H](C)CO)C(=O)c2cccc(NC(=O)c3ccc(-c4nccs4)cc3)c2O[C@H]1CN(C)S(=O)(=O)c1ccccc1 | 39 | 1.1 | -8 | 0.33
COc1ccc(N=c2scc(C)n2C(=O)c2ccccc2Cl)cc1 | -1 | 0.4 | 7 | -0.22
C[C@H](CO)N1C[C@H](C)[C@@H](CN(C)CC2CCCCC2)Oc2c(NC(=O)NC3CCCCC3)cccc2C1=O | 6 | / | 9 | -0.43
C[C@@H]1CN([C@@H](C)CO)C(=O)c2cc(NS(=O)(=O)c3ccc(F)cc3)ccc2O[C@H]1CN(C)Cc1ccc(Cl)c(Cl)c1 | / | -2.1 | 24 | -0.15
C[C@]12CCC3C(CC[C@@H]4C[C@H](O)CC[C@]34C)C1CC[C@]2(O)C(=O)CO (some centres not stated) | -10 | -1.0 | -2 | -0.34
O=C(COc1cc(Cl)c(Cl)cc1Cl)Nc1ccccc1C(=O)N1CCCCC1 | / | 0.1 | 4 | /
c1ccc2c(c1)[nH]c1nc(SCCN3CCOCC3)nnc12 | / | -1.0 | -15 | /
C[C@@H]1CN([C@H](C)CO)C(=O)c2cc(NC(=O)NC3CCCCC3)ccc2O[C@@H]1CN(C)Cc1ccc(C(=O)Nc2ccccc2N)cc1 | / | -2.2 | -9 | 0.11
COc1ccc(S(=O)(=O)N(C)C[C@@H]2Oc3c(NC(=O)CCCCCC(=O)Nc4ccccc4N)cccc3C(=O)N([C@H](C)CO)C[C@@H]2C)cc1 | / | -0.2 | -1 | 0.37
COc1c(Cl)cc(C(=O)Nc2sc3c(c2C(=O)NC2CCS(=O)(=O)C2)CCC(C)C3)cc1Cl (configuration not stated) | / | -9.0 | 33 | /
Cc1ccc(S(=O)(=O)N(C)C[C@H]2Oc3c(NS(=O)(=O)c4c(C)noc4C)cccc3C(=O)N([C@@H](C)CO)C[C@H]2C)cc1 | -7 | -1.9 | 8 | -0.092
C[C@@H]1CN([C@H](C)CO)C(=O)c2cc(NC(=O)Nc3cccc4ccccc34)ccc2O[C@H]1CN(C)Cc1ccc(Oc2ccccc2)cc1 | / | -9.2 | 1 | 0.03
CCNc1cc(N)[n+](CC)c2n[nH]c(N)c12 | 5 | 0.3 | 1 | 0.71
Cc1noc(C)c1S(=O)(=O)Nc1cccc2c1O[C@@H](CN(C)Cc1ccc(Oc3ccccc3)cc1)[C@@H](C)CN([C@@H](C)CO)C2=O | 14 | 2.2 | 3 | -0.3
Cc1cccc(-n2c(C)nnc2SCC(=O)Nc2ccc(Br)cc2F)c1 | / | -0.5 | -16 | /
The results go on:
SMILES | Shh pathway inh | PD-1 reverse act | MITF inh | YB-1 expression
N#CC(C#N)(Cc1ccccc1)Cc1ccccc1 | 42 | -0.8 | 22 | -0.34
O=C(CSc1nnc(-c2cccc([N+](=O)[O-])c2)n1-c1ccccc1)NC1CCCCC1 | / | 0.1 | -41 | /
Cc1noc(C)c1S(=O)(=O)Nc1ccc2c(c1)C(=O)N([C@H](C)CO)C[C@@H](C)[C@H](CN(C)C(=O)Nc1ccc(C(F)(F)F)cc1)O2 | / | -1.6 | -6 | -0.25
Cc1ccc(OCc2n[nH]c(=S)n2C2CCCCC2)c2c1CCC2 | 10 | -5.8 | 27 | -0.28
COc1ccc(S(=O)(=O)Nc2ccc3c(c2)C(=O)N([C@H](C)CO)C[C@H](C)[C@@H](CN(C)Cc2ccc(C(=O)Nc4ccccc4N)cc2)O3)cc1 | / | 0.0 | 7 | 0.16
C[C@@H]1CN([C@H](C)CO)C(=O)c2cccc(NC(=O)c3nc4ccccc4s3)c2O[C@@H]1CN(C)C(=O)Nc1ccc(C(F)(F)F)cc1 | 0 | / | 6 | -0.14
C[C@H](CO)N1C[C@H](C)[C@H](CN(C)Cc2ccc(Oc3ccccc3)cc2)Oc2ccc(NC(=O)Nc3ccc(F)cc3)cc2CC1=O | 17 | -3.3 | -10 | 0.31
C[C@@H]1CN([C@H](C)CO)C(=O)c2cccc(NC(=O)Nc3ccccc3)c2O[C@@H]1CN(C)C(=O)Nc1ccc(F)cc1 | 13 | / | 8 | 0.16
c1ccc(C2=N[C@H](c3ccccc3)[C@H](c3ccccc3)N2)cc1 | 32 | -2.3 | -9 | -0.4
O=C(NCCN1CCOCC1)C1CC(c2ccc(Cl)c(Cl)c2)=NO1 (configuration not stated) | / | 4.4 | -40 | /
Cc1noc(C)c1S(=O)(=O)Nc1ccc2c(c1)C(=O)N([C@@H](C)CO)C[C@H](C)[C@@H](CN(C)C(=O)Nc1ccc(C(F)(F)F)cc1)O2 | -7 | -1.3 | -1 | 0.23
C[C@@H]1CN([C@H](C)CO)C(=O)Cc2cc(NS(C)(=O)=O)ccc2O[C@@H]1CN(C)C | 34 | 2.3 | -5 | -0.12
O=C(CSc1nnc(-c2cccnc2)n1-c1ccccc1)N1CCN(c2ccc(F)cc2)CC1 | / | -2.5 | 11 | /
CC(C)NC(=O)Nc1ccc2c(c1)C(=O)N([C@@H](C)CO)C[C@@H](C)[C@H](CN(C)S(=O)(=O)c1ccc(F)cc1)O2 | -8 | 1.2 | -4 | 0.1
COc1cc2c(Cc3ccc(OC)c(OC)c3)nccc2cc1O | -2 | 2.8 | 43 | 0.38
C[C@H](CO)N1C[C@H](C)[C@@H](CN(C)C(=O)Nc2ccccc2)Oc2c(NC(=O)CCCCCC(=O)Nc3ccccc3N)cccc2C1=O | / | 0.6 | -19 | -0.12
C[C@H](CO)N1C[C@H](C)[C@H](CN(C)S(=O)(=O)c2ccccc2)Oc2ccc(NS(=O)(=O)c3cn(C)cn3)cc2CC1=O | 18 | 1.3 | -3 | -0.17
C[C@@H]1CN([C@@H](C)CO)C(=O)c2cc(NC(=O)c3ccncc3)ccc2O[C@@H]1CN(C)C(=O)Nc1ccccc1 | 6 | -0.5 | -2 | 0.4
C[C@@H]1CN([C@@H](C)CO)C(=O)c2cccc(NC(=O)C3CCCCC3)c2O[C@H]1CN(C)S(=O)(=O)c1ccccc1 | 18 | / | 5 | -0.35
Cc1ccc(S(=O)(=O)N(C)C[C@H]2Oc3ccc(NC(=O)C4CCCCC4)cc3CC(=O)N([C@@H](C)CO)C[C@H]2C)cc1 | -7 | -0.4 | 3 | -0.29
CC(C)NC(=O)Nc1ccc2c(c1)CC(=O)N([C@@H](C)CO)C[C@@H](C)[C@@H](CN(C)Cc1ccc(C(=O)Nc3ccccc3N)cc1)O2 | / | -3.8 | 2 | -0.32
C[C@@H]1CCCCO[C@H](CN(C)C(=O)Cc2ccccc2)[C@@H](C)CN([C@H](C)CO)C(=O)c2cc(NC(=O)Nc3ccc4c(c3)OCO4)ccc2O1 | 4 | 2.7 | -12 | 0.4
C[C@H]1CN([C@@H](C)CO)C(=O)c2cccc(NC(=O)NC3CCCCC3)c2O[C@H]1CN(C)C(=O)Nc1cccc2ccccc12 | 2 | 1.8 | 13 | 0.49
Cc1ccc(S(=O)(=O)N(C)C[C@H]2OCCCC[C@@H](C)Oc3ccc(NC(=O)CCCCCC(=O)Nc4ccccc4N)cc3C(=O)N([C@H](C)CO)C[C@@H]2C)cc1 | / | 0.6 | 3 | -1.1
Cc1noc(C)c1NC(=O)N(C)C[C@H]1Oc2ccc(NC(=O)Nc3ccc(F)cc3)cc2C(=O)N([C@@H](C)CO)C[C@H]1C | 50 | 0.3 | -4 | 0.22

Exported as labelled records: entries from further up
Cc1cccc(-n2c(C)nnc2SCC(=O)Nc2ccc(Br)cc2F)c1
  Shh pathway inh: /
  PD-1 reverse act: -0.5
  MITF inh: -16
  YB-1 expression: /

COc1cc2c(Cc3ccc(OC)c(OC)c3)nccc2cc1O
  Shh pathway inh: -2
  PD-1 reverse act: 2.8
  MITF inh: 43
  YB-1 expression: 0.38

(list continues)
SMILES | Shh pathway inh | PD-1 reverse act | MITF inh | YB-1 expression
C[C@@H]1CN([C@H](C)CO)C(=O)c2cc(NS(=O)(=O)c3cccs3)ccc2O[C@@H]1CN(C)Cc1ccc2c(c1)OCO2 | / | 2.2 | -2 | 0.21
C[C@H]1CN([C@@H](C)CO)C(=O)c2cccc(NC(=O)Nc3ccc4c(c3)OCO4)c2O[C@@H]1CN(C)C(=O)NC1CCCCC1 | -21 | 1.7 | -2 | 0.29
COc1ccc(S(=O)(=O)Nc2ccc3c(c2)C(=O)N([C@H](C)CO)C[C@H](C)[C@@H](CN(C)S(C)(=O)=O)OCCCC[C@@H](C)O3)cc1 | -14 | 0.6 | -8 | -0.042
C[C@@H]1CN([C@H](C)CO)C(=O)c2cc(NS(=O)(=O)c3cccs3)ccc2O[C@@H]1CN(C)C(=O)Nc1cccc2ccccc12 | -3 | 0.1 | 6 | 0.1
CNC[C@@H]1Oc2ccc(N)cc2C(=O)N([C@H](C)CO)C[C@H]1C | -11 | 1.6 | -4 | -0.14
CNC[C@@H]1Oc2ccc(NS(=O)(=O)c3cn(C)cn3)cc2CC(=O)N([C@H](C)CO)C[C@@H]1C | -55 | 1.2 | -4 | -0.038
Cc1cc(=O)oc2cc(OCC(=O)Nc3sc4c(c3C#N)CCC4)ccc12 | / | -5.7 | -15 | /
COc1ccc(CN(C)C[C@@H]2Oc3ccc(NS(=O)(=O)c4cn(C)cn4)cc3C(=O)N([C@@H](C)CO)C[C@@H]2C)cc1 | -7 | 0.2 | -2 | -0.25
C[C@@H]1CCCCO[C@@H](CN(C)Cc2ccc(Cl)c(Cl)c2)[C@@H](C)CN([C@H](C)CO)C(=O)c2cc(NC(=O)Cc3ccccc3)ccc2O1 | / | -1.4 | 59 | 0.36
C=C1CC[C@@H]2C(C)(C)[C@H](O)CC[C@@]2(C)[C@@H]1COc1ccc2ccc(=O)oc2c1 | -4 | -1.9 | 49 | -0.34
CNC[C@@H]1Oc2ccc(NC(=O)Nc3ccc4c(c3)OCO4)cc2C(=O)N([C@H](C)CO)C[C@H]1C | / | 1.7 | -11 | -0.09
COc1ccc(-c2nc3cc4c(cc3o2)Oc2ccccc2N4)cc1 | 19 | 1.3 | -52 | 0.22
COc1cc(S(=O)(=O)NCCN2CCOCC2)c(OC)cc1Cl | / | 1.6 | -9 | /
Cc1noc(C)c1S(=O)(=O)Nc1ccc2c(c1)C(=O)N([C@H](C)CO)C[C@H](C)[C@@H](CN(C)S(=O)(=O)c1ccccc1)O2 | / | -0.8 | -14 | -0.47
C[C@H]1CN([C@@H](C)CO)C(=O)c2cccc(NS(C)(=O)=O)c2O[C@H]1CN(C)C | -28 | 3.4 | -9 | -0.08
COc1ccc(S(=O)(=O)N(C)CC(=O)Nc2ccccc2SC)cc1 | / | -0.8 | 20 | /
C[C@H]1CN([C@@H](C)CO)C(=O)Cc2cc(NS(=O)(=O)c3ccc(Cl)cc3)ccc2O[C@H]1CN(C)Cc1ccc(Oc2ccccc2)cc1 | 3 | / | -4 | -0.021

Arranged by molecular weight (highest first): some entries from above.
SMILES | Shh pathway inh | PD-1 reverse act | MITF inh | YB-1 expression
C[C@H]1CN([C@@H](C)CO)C(=O)Cc2cc(NS(=O)(=O)c3ccc(Cl)cc3)ccc2O[C@H]1CN(C)Cc1ccc(Oc2ccccc2)cc1 | 3 | / | -4 | -0.021
COc1ccc(S(=O)(=O)Nc2ccc3c(c2)C(=O)N([C@H](C)CO)C[C@H](C)[C@@H](CN(C)S(C)(=O)=O)OCCCC[C@@H](C)O3)cc1 | -14 | 0.6 | -8 | -0.042
Cc1noc(C)c1S(=O)(=O)Nc1ccc2c(c1)C(=O)N([C@H](C)CO)C[C@H](C)[C@@H](CN(C)S(=O)(=O)c1ccccc1)O2 | / | -0.8 | -14 | -0.47

Assay outcomes: PubChem BioAssay, Broad Institute
